# Assay outcomes (PubChem)
# 2A firefly = FMDV 2A StopGo reporter, firefly signal; HEK cells with a luciferase reporter of 2A StopGo recoding; Potency, µM (highest dose often 57.5 µM), for inactives: at the top dose signal change, negative = less light; 120,000 compounds, 0.23% hits; AID 1745856; active = well fitted falling curve with a large enough effect; inconclusive = small, poorly fitted or top-dose-only effect; inactive = no such curve, though single readings can be large or run the other way; further: nearly all actives have a fitted effect of over 60% in size; overnight with compound
# 2A Renilla = lowers the Renilla signal of an FMDV 2A StopGo reporter | HEK cells with a luciferase reporter of 2A StopGo recoding | Potency, µM (doses to about 57.5 µM), without a hit: at the highest dose signal change, negative = less light | 120,000 compounds, 0.32% hits | AID 1745857; active means well fitted falling curve with a large enough effect; inconclusive means small, poorly fitted or top-dose-only effect; inactive means no such curve, though single readings can be large or run the other way; further: nearly all actives have a fitted effect of over 55% in size; overnight with compound
# Active calls of the source: *; ? = inconclusive; [ ] = dose if it differs, or a comment. On the % scale 0 is the no-effect control and ±100 the full control effect; potency means the concentration at half of the fitted maximal effect. The list is partial (hit frequency here may not be typical).
SMILES,2A firefly,2A Renilla
O=C(CSc1nc2c([nH]c3ccccc32)c(=O)n1-c1ccccc1)Nc1ccccc1F,-31%,-7%
NC(=O)c1ccc(NC(=O)COC(=O)c2c[nH]c3ccccc23)cc1,2%,1%
COc1cccc(-c2cc(C(=O)NCc3ccc(F)cc3)no2)c1,15%,8%
Cc1ccc(S(=O)(=O)N2CCN(Cc3cc(Br)ccc3O)CC2)cc1,14%,-2%
COc1ccc(-c2cc(C(=O)N3CCCCCC3)c3ccccc3n2)cc1,99%[activator],153%[activator]
CC(C)CN1C(=O)C2(CC(=O)Nc3c2cnn3Cc2ccccc2Cl)c2ccccc21 (stereo not given),-7%,13%
COc1ccccc1NC(=O)c1ccc(NC(=O)Cn2nc(C(=O)O)c3ccccc3c2=O)cc1,3%,-7%
Cc1ccc(C)c(NS(=O)(=O)c2cc3c(cc2Cl)NC(=O)CO3)c1,-8%,160%[activator]
Cc1cc(NC(=O)CCc2ncc(-c3ccc(Cl)cc3)o2)no1,21%,-5%
CC(=O)Nc1ccc(S(=O)(=O)[C@H]2CS(=O)(=O)C[C@@H]2N2CCCC2)cc1,14%,-1%
CCc1ccc(CN2C(=O)c3ccccc3C2C(=O)NC2CCCCCC2)cc1 (stereo not given),3%,12%
COC(=O)c1c(C)oc2ccc(OC(=O)C(C)(C)C)cc12,14%,-2%
Cc1cc(C)c(-c2csc(NC(=O)CN(C)CC(=O)Nc3ccccc3C(F)(F)F)n2)c(C)c1,?,?
CCCCOc1ccc(S(=O)(=O)n2nc(C)c(S(=O)(=O)N3CCCCCC3)c2C)cc1,-9%,-4%
CC(C#N)Sc1nnc2c(Cl)cc(C(F)(F)F)cn12 (stereo not given),5%,-4%
COc1ccc(CCNC(=O)Cn2nnc(-c3ccc(C(F)(F)F)cc3)n2)cc1OC,2%,3%
COCc1nnc(NC(=O)c2cccc3c2ccn3C)s1,0%,80%[activator]
CC(C)CCNC(=O)c1cc(-c2ccco2)nc2ccccc12,0%,24%
O=C(CCc1ccco1)N(Cc1cccs1)C1CC1,-2%,64%[activator]
Cc1cc(C(=O)N2CCN(S(=O)(=O)c3ccc(C#N)cc3)CC2)c(C)n1C(C)C,-3%,-11%
CC1CCN(CC(=O)N2CCN(S(=O)(=O)c3ccccc3F)CC2)CC1,5%,-5%
O=C1COc2cc(S(=O)(=O)CCC(=O)N3CCN(c4ccccc4F)CC3)c(Cl)cc2N1,-4%,-1%
CSCCC(NC(=O)C1CCC(C)CC1)C(=O)Nc1ccc2c(c1)OCCO2 (stereo not given),44%[activator],22%
Cn1c(=O)c2c(nc(NCc3ccccc3)n2Cc2ccccc2Br)n(C)c1=O,37%[activator],10%
CCOc1ccc(CCNC(=O)CCCn2c(=O)c3cccn3c3cccnc32)cc1,-14%,-9%

# Reprinted from the part before: 2 entries, followed by the next part.
SMILES,2A firefly,2A Renilla
Cn1c(=O)c2c(nc(NCc3ccccc3)n2Cc2ccccc2Br)n(C)c1=O,37%[activator],10%
CCOc1ccc(CCNC(=O)CCCn2c(=O)c3cccn3c3cccnc32)cc1,-14%,-9%
CCOC(=O)c1ccc(NC(=O)CSc2nccn2Cc2ccc(OC)cc2)cc1,-2%,3%
CCN1CC(=O)C=C(C)C1,-8%,-14%
COc1cccc(-n2nnc3c(N4CCN(S(=O)(=O)c5ccc(C)c(C)c5)CC4)ncnc32)c1,20%,-2%
Cc1ccc(N2CCN(C(=O)C3CCN(c4ncnc5c4nc4n5CCCCC4)CC3)CC2)c(C)c1,5%,5%
Cc1nn(C)c2sc(C(=O)N3CCN(c4ncccn4)CC3)cc12,-4%,-26%
Cc1cccc(C2N3CC4(C)CN2CC(C)(C3)C4=O)c1 (stereo not given),0%,-1%
CN(C)c1ccc(-c2nc(-c3cc4cc(Cl)ccc4oc3=O)cs2)cc1,3%,16%
COc1ccc(S(=O)(=O)N2CCC[C@H]2C(=O)Nc2cc(C)on2)cc1,8%,6%
O=C(O)C(c1c[nH]c2ccc(OCc3ccccc3)cc12)N1CCN(CCOCCO)CC1 (stereo not given),3%,-3%
O=C(Nc1ccc(OC(F)(F)F)cc1)C1CCCN(S(=O)(=O)c2cccc3nonc23)C1 (stereo not given),-12%,-5%
Cc1ccc(CNC(=O)C2(C)CN(S(C)(=O)=O)CC(=O)N2c2ccc(C(C)C)cc2)cc1 (stereo not given),-3%,0%
O=C(Nc1cccc(Oc2ccccc2)c1)C1CCCO1 (stereo not given),165%[activator],0%
O=C(CSc1nc(=O)[nH]c2c1CCC2)NCc1ccc(F)cc1,-22%,-5%
CCOc1ccc(CNC(=O)C2CCCN(c3nn4cc(-c5ccc(OC)cc5)nc4s3)C2)cc1 (stereo not given),32%[activator],-19%
Cc1ccc2c(c1C)NC(=O)CC2c1ccc(Cl)cc1Cl (stereo not given),-6%,6%
Cc1ccc(-n2ncc3c(N(CC(C)C)CC(C)C)ncnc32)c(C)c1,0%,0%
CSc1ncc(C(=O)NCc2ccccc2F)c(-c2ccccc2)n1,-7%,7%
COc1cc(C(=O)Nc2ccc(-c3nc4ccccc4o3)c(O)c2)cc(OC)c1OC,-13%,-11%
COc1ccc(Oc2nc3c(c(=O)n(Cc4ccc(Br)cc4)c(=O)n3C)n2C)cc1,-13%,-6%
COc1cc(NS(=O)(=O)c2ccc(NC(=O)c3ccc(OC)c(Br)c3)cc2)nc(OC)n1,-5%,58%[activator]
COc1cccc(C(N)=O)c1OCc1ccc(C)cc1,41%[activator],3%
O=C(CCCN1CCC(O)(c2ccc(Cl)cc2)CC1)c1ccc(F)cc1,20%[11.5 µM],-6%
CCc1nn(CC(=O)NC(C)CC)c(=O)c2cc3c(OC)cccc3n12 (stereo not given),0%,-7%
O=C(CSc1nncn1C1CC1)c1c[nH]c2ccccc12,121%[activator],3%
Cc1ccc(C(=O)OCc2ccc(C#N)cc2)cc1C,0%,4%
# Following part.
SMILES,2A firefly,2A Renilla
O=C(Cn1nc(C(=O)O)c2ccccc2c1=O)NC(=O)NCc1ccccc1,51%,17%
CCCC(=O)Nc1cccc(-c2nc3cc(C)cc(C)c3o2)c1C,67%[activator],12%
CCn1nc(C(=O)Nc2nnc(Cc3ccccc3)s2)c2ccccc2c1=O,16%,10%
COc1ccccc1-c1nc(C#N)c(N2CCN(C)CC2)o1,19%,-1%
Cc1ccc2oc(C(=O)Nc3ccc(S(=O)(=O)Nc4nc(C)cc(C)n4)cc3)cc(=O)c2c1,4%,-13%
COc1ccc2c(c1)c(=O)c(S(=O)(=O)c1ccc(F)cc1)cn2CC(=O)Nc1ccc(C)cc1C,?,-23%
CCOC(=O)C1=C(CN(C)Cc2ccccc2)NC(=O)NC1c1ccc(OC)cc1 (stereo not given),?,-22%
CCNc1c(NC(=O)c2ccc(C(C)(C)C)cc2)c(=O)oc2ccccc12,-7%,-1%
COC(=O)c1ccc(CNC(=O)c2cc3c(C)nn(C)c3s2)cc1,-14%,-13%
COc1cc(C#N)ccc1OC(C(=O)NC1CC1)c1ccccc1 (stereo not given),-3%,-10%
CCc1ccc(CNC(=O)c2nn(-c3ccc(C)cc3)c(=O)c3c2c2ccccc2n3C)cc1,5%,-8%
Cc1cccc(CNC(=O)CN2C(=O)CSc3c2c(C)nn3-c2ccccc2)c1,-15%,104%[activator]
Cc1ccc(N2C(=O)CN(S(=O)(=O)c3ccccc3)CC2(C)C(=O)NCCC(C)C)cc1C (stereo not given),-7%,16%
CCOC(=O)c1cc(C)n(CC2CCC(C(=O)Nc3ccc(C(=O)OC)cc3)CC2)c1C (stereo not given),-4%,-3%
FC(F)(F)c1cccc(-c2nnn3c2nc(NC2CCCCC2)c2ccccc23)c1,3%,-7%
Cc1cc(C)c(C#N)c(SCc2cc(=O)oc3cc(O)c(Cl)cc23)n1,3%,48%[activator]
Cc1ccc(NS(=O)(=O)c2ccc3c(c2)NC(=O)CCS3)c(Br)c1,10%,48%[activator]
CC(C)c1ccccc1NC(=O)Cc1ccc2c(c1)CCC2,3%,3%
CN(CCOc1ccccc1)Cc1cc(=O)oc2cc(O)ccc12,-4%,-7%
COc1ccc(-n2nnnc2SCC(=O)NC(C)c2ccc(-c3ccccc3)cc2)cc1 (stereo not given),-22%,-30%
N#Cc1nc(-c2ccc(F)cc2)oc1N1CCN(C(=O)c2ccco2)CC1,15%,-3%
CN(CC(=O)NC(=O)NC1CCCCC1)CC(=O)Nc1ccc(Cl)cc1,-18%,-3%
Cc1ccc(Cl)cc1Nc1nnc(C(C)(C)C)c(=O)[nH]1,3%,-10%
CCc1cccc(C)c1NC(=O)CN1CCCN(Cc2ccccc2Cl)S1(=O)=O,-15%,21%
CCOc1ccc(N2C(=O)c3ccccc3NC2(CC)CC)cc1,0%,5%
# Next part.
SMILES,2A firefly,2A Renilla
COc1cccc(CNc2ncnc3onc(C)c23)c1,?,?
CCCCCn1nc(C(=O)Nc2cccc(C(C)=O)c2)c2ccccc2c1=O,0%,0%
COc1ccc(C(=O)Nc2nc(C)c(C(=O)N(C)C)s2)c(OC)c1,30%,22%
CCOC(=O)C1=C(N)Oc2cc(O)ccc2C1c1ccc(Br)cc1 (stereo not given),1%,1%
Cc1cccc(OCC(=O)Nc2ccc3nc(SCc4ccccc4)sc3c2)c1,0%,-1%
Cc1ccc(OCc2nc(C)c(C(=O)Nc3ccc(C)cc3C)s2)cc1,17%,-15%
Cc1noc(/C=C\c2ccc(S(=O)(=O)N3CCOCC3)cc2)c1NC(=O)C1CC1,1%,61%[activator]
N#Cc1nc(-c2ccco2)oc1N1CCN(CC(=O)N2CCOCC2)CC1,-3%,-2%
O=C(NCc1ccc(F)cc1)c1n[nH]c(=O)c2ccccc12,5%,-14%
Fc1ccccc1CSCCNC(=S)Nc1ccccc1,80%[activator],?
Cc1cc(C)n(-c2ccc(CSc3cccc[n+]3[O-])cc2)n1,49%[activator],11%
Cc1c(Cl)cccc1NC(=O)C1CCCN(C(=O)c2cnn(-c3ccccc3)c2-n2cccc2)C1 (stereo not given),7%,26%
O=C(Cc1noc(C(=O)NC2CC2)n1)Nc1cccc2ncccc12,-1%,-11%
Cc1ccc(Cl)cc1NC(=O)N1CCC(CN2CCCCCC2)CC1,-14%,-1%
Cc1ccc(C2=NN(c3nc(C)cs3)C(c3ccccc3F)C2)cc1 (stereo not given),40%[activator],11%
COc1ccc(NC(=O)Cn2c(=O)n(-c3ccc(Cl)cc3)c(=O)c3c(C)c(C(=O)N(C)C)sc32)cc1Cl,-21%,31%[activator]
CCn1c(=O)c2cc(C(=O)Nc3cc(C)c(Cl)cc3OC)sc2c2ccccc21,-24%,-9%
CCCN(CCC)CC(O)CN(c1ccc(OC)cc1)S(=O)(=O)c1ccc(C)cc1 (stereo not given),-19%,-11%
COc1cc(OC)cc(C(=O)Oc2c(Sc3ccccc3)c(C)nn2C(C)(C)C)c1,-17%,-18%
CC(=O)c1cc(-c2ccc(F)cc2)n(CCC(=O)Nc2nc3c(C)cccc3s2)c1C,-18%,-10%
CCOC(=O)Cc1ccc(NC(=O)Nc2nnc(N3CCCCC3C)s2)cc1 (stereo not given),-26%,?
Cc1cc2oc(=O)c(CC(=O)NCCc3ccccc3)c(C)c2c2occ(C(C)(C)C)c12,41%[activator],164%[activator]
CC(=O)N1CCC(C(=O)Nc2cc(C)ccn2)CC1,168%[activator],57%[activator]
CCOc1cc(C2Nc3ccccc3-c3nnc(SCc4ccccc4)nc3O2)ccc1OC (stereo not given),5%,-19%
COc1ccc(OC)c(CNS(=O)(=O)c2ccc3c(c2)oc(=O)n3C)c1,6%,51%[activator]
Cc1ccc(C(CNC(=O)c2ccc(NC(=O)OC(C)(C)C)cc2)N2CCOCC2)o1 (stereo not given),-5%,-8%
CCOC(=O)c1cnc2ccccc2c1N1CCC(CNC(C)=O)CC1,10%,9%
Cc1ccc2c(c1)c1c(c(=O)n(Cc3ccccc3)c(=O)n1CC(=O)NCc1ccccc1Cl)n2C,-11%,10%

# Gathered by group, the entries above containing an aryl thioether with sulfur outside any ring (twelve)
SMILES,2A firefly,2A Renilla
O=C(CSc1nc2c([nH]c3ccccc32)c(=O)n1-c1ccccc1)Nc1ccccc1F,-31%,-7%
CC(C#N)Sc1nnc2c(Cl)cc(C(F)(F)F)cn12 (stereo not given),5%,-4%
CCOC(=O)c1ccc(NC(=O)CSc2nccn2Cc2ccc(OC)cc2)cc1,-2%,3%
O=C(CSc1nc(=O)[nH]c2c1CCC2)NCc1ccc(F)cc1,-22%,-5%
CSc1ncc(C(=O)NCc2ccccc2F)c(-c2ccccc2)n1,-7%,7%
O=C(CSc1nncn1C1CC1)c1c[nH]c2ccccc12,121%[activator],3%
Cc1cc(C)c(C#N)c(SCc2cc(=O)oc3cc(O)c(Cl)cc23)n1,3%,48%[activator]
COc1ccc(-n2nnnc2SCC(=O)NC(C)c2ccc(-c3ccccc3)cc2)cc1 (stereo not given),-22%,-30%
Cc1cccc(OCC(=O)Nc2ccc3nc(SCc4ccccc4)sc3c2)c1,0%,-1%
Cc1cc(C)n(-c2ccc(CSc3cccc[n+]3[O-])cc2)n1,49%[activator],11%
COc1cc(OC)cc(C(=O)Oc2c(Sc3ccccc3)c(C)nn2C(C)(C)C)c1,-17%,-18%
CCOc1cc(C2Nc3ccccc3-c3nnc(SCc4ccccc4)nc3O2)ccc1OC (stereo not given),5%,-19%
